D2 ag: agonists of human D2 dopamine receptor (beta-arrestin); 360,000 tested, 0.084% active; activation, % (no concentration beside the values); P14416; DiscoveRx PathHunter D2 beta-arrestin, luminescence, 90 min; 100% = 57 uM dopamine signal; in the data active = activation above about 40%; inconclusive = about 15% to 40%; inactive = below about 15%; note: compound concentration not given in the record; the text of the record calls up to 30% inactive
Target sequence (P14416 whole entry, looked up): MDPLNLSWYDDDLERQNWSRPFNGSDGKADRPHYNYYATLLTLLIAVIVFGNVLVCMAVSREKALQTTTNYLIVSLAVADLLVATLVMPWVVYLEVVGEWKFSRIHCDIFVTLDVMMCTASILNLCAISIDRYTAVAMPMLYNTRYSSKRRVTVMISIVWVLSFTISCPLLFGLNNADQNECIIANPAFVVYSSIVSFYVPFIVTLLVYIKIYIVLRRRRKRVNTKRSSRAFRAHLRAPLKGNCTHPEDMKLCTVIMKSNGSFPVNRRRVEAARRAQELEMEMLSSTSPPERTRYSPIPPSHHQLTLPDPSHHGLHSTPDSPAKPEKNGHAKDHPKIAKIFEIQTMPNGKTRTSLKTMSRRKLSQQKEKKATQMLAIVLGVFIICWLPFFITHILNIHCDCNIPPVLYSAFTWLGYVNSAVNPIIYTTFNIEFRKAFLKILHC
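Agonist mode: compounds alone added to overnight-plated D2 PathHunter cells for 90 min at 37 C, with 57 uM final dopamine (EC100) defining full response. Beta-arrestin recruitment detected by chemiluminescent reagent, read after 1 h at ambient temperature.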
TRPML1 blocker: human mucolipin-1 channel inhibition; Q9GZU1; TRPML1-inducible cells, Ca2+ dye fluorescence, FDSS; active compounds read low; inhibition of EC80 agonist-evoked calcium signal; activity change, negative = inhibition, % (test concentration not listed); 390,000 tested, 0.02% active; AID 624415; in the data active means activity change below about -50%; inconclusive means about -30% to -50%; inactive means above about -30%;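 note: stimulus is agonist 54-4 at its EC80 concentration; % is set by controls: 0 for no effect and ±100 for the full control effect; compound concentration not given in the record; the text of the record puts the active cut at -80%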
Target sequence (Q9GZU1 whole entry, looked up): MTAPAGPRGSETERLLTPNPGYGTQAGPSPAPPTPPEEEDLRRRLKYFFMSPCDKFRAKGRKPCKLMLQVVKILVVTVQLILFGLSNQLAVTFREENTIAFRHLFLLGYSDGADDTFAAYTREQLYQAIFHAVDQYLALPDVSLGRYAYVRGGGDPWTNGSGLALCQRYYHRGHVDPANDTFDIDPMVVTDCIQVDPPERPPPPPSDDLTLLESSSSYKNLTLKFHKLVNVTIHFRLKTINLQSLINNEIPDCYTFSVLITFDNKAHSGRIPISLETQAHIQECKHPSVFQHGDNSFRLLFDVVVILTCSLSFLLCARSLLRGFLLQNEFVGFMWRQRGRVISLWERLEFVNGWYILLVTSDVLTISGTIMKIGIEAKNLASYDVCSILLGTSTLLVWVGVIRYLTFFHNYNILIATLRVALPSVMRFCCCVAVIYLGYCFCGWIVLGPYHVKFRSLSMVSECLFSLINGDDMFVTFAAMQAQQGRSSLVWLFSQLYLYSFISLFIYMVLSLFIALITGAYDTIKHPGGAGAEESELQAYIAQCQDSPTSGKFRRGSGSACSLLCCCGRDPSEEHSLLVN
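Tet-induced TRPML1-DL cells loaded with Ca8 no-wash calcium dye were read kinetically on FDSS. Compound addition was followed by EC80 agonist 54-4 (4 uM final); inhibition was read over 110 s.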
Six1-Eya2 inh: Six1/Eya2 interaction inhibition; Q15475+O00167; AlphaScreen GST-Six1/His-Eya2 binding, biochemical; active compounds read low; control for the full effect not named in the record; activity change, % (concentration not given with the values); 360,000 tested, 0.56% active; AID 651725; in the data active = activity change below about -65%; inconclusive = about -30% to -65%; inactive = above about -30%; note: % is set by controls: 0 for no effect and ±100 for the full control effect
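GST-Six1 + His-Eya2 (5X stock: 250/500 nM); Tris pH 8.0, 300 mM NaCl, 0.05% BSA, 0.02% Tween 20; GSH donor/Ni acceptor beads; 1 h 37 °C dark; AlphaScreen readout.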
TRPML1 agonist: activates the human TRPML1 channel; Q9GZU1; AID 624414; activation, % (no concentration beside the values); TRPML1-expressing cells, Ca2+ dye fluorescence, FDSS; host cell line not named in the record; reference of the full effect not given here; 410,000 tested, 0.12% active; in the data active = activation above about 50%; inconclusive = about 30% to 50%; inactive = below about 30%; note: 0% is about no effect; the text of the record puts the active cut at 80%
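Cells: TRPML1-DL, 1X Tet inducer, ~16 h at 37 degrees C/5% CO2. Dye: ABD Ca8 no-wash + quencher, 45-90 min RT. Read: 10 s baseline, compound add, 110 s agonist phase; 54-4 EC80 (4uM final), 110 s antagonist phase.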
PINK1 expr mod: modulators of PINK1 expression; PINK1 immunofluorescence, high-content cytometry, 24 h; Potency, µM (doses to about 76.6 µM), inactives show top-dose activation (PINK1 increase), most hits filed as activators; 410,000 tested, 0.2% active; AID 624263; active = well fitted activation curve with a large enough effect; inconclusive = small, poorly fitted or top-dose-only effect; inactive = flat fitted curve, though single readings scatter; cell line not stated here;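 note: potency is the fitted concentration of half-maximal effect; % of control where 0% means no effect; nearly all actives have a fitted effect of over 65% in size; a mitochondrial uncoupler was the plate control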
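Compound titrations (5 concentrations, 24 h) on a stable cell line; DMSO and CCCP controls. Endpoint: fixed-cell PINK1 immunofluorescence with mitochondrial, cell and nuclear markers, scanned by microplate cytometer.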
CtBP-E1A blk: inhibitors of CtBP/E1A interaction; AID 651724; activity change, % (concentration not given with the values); AlphaScreen GST-E1A/His-CtBP binding, 1536-well; active compounds read low; control for the full effect not named in the record; 340,000 tested, 0.49% active; in the data active means activity change below about -65%; inconclusive means about -30% to -65%; inactive means above about -30%; note: % is set by controls: 0 for no effect and ±100 for the full control effect
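AlphaScreen with 125 nM GST-E1A and 125 nM His-CtBP (5X stocks) in Tris pH 8.0, 300 mM NaCl, BSA, Tween 20, TCEP. Compounds preincubated 2 h at 37 deg C, then glutathione donor/nickel acceptor beads added for 1 h at 37 deg C in dark.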
* hit, by the source's call; [ ] = another dose, or the depositor's remark.

How did O=C(COC(=O)C1CC2C=CC1C2)Nc1ccc2c(c1)OC(F)(F)O2 (stereo not drawn) do in these assays?
D2 ag: 1.8; TRPML1 blocker: -7.0; Six1-Eya2 inh: 6.8; TRPML1 agonist: 0.0; PINK1 expr mod: 1.6%[38.3 µM]; CtBP-E1A blk: 9.7

Results for CN(C(=O)C=Cc1ccco1)c1ccccc1 ?
D2 ag: -1.4; TRPML1 blocker: 26.9; Six1-Eya2 inh: 3.1; TRPML1 agonist: -0.2; PINK1 expr mod: -4.2%; CtBP-E1A blk: 10.6

Results for COCCCn1c(SCc2cccc(OC)c2)nc2cc(OC)c(OC)cc2c1=N ?
D2 ag: 1.0; TRPML1 blocker: 22.7; Six1-Eya2 inh: -6.9; TRPML1 agonist: 0.7; PINK1 expr mod: 0.2%[38.3 µM]; CtBP-E1A blk: -12.9

What do the screens show for `COc1ccc(NC(=O)C(=O)NCC(c2cccnc2)N2CCc3ccccc32)cc1OC` (stereo not drawn)?
TRPML1 blocker: 24.5; TRPML1 agonist: 0.2; PINK1 expr mod: 3.0%

Results for CCC(=O)N1CCc2cc(S(=O)(=O)NC(Cc3ccccc3)C(=O)Nc3cccc(OC)c3)ccc21 (stereo not drawn) ?
TRPML1 blocker: 50.9; TRPML1 agonist: 1.3; PINK1 expr mod: 0.2%

How did Cn1nc(SCc2ccccc2)c(=O)n(C(c2ccccc2)c2ccccc2)c1=O do in these assays?
D2 ag: -3.2; TRPML1 blocker: 73.7; Six1-Eya2 inh: -2.8; TRPML1 agonist: 1.3; PINK1 expr mod: -2.7%; CtBP-E1A blk: 5.9

How did CN(Cc1ccccc1)C(=O)c1cc2ccccc2o1 do in these assays?
D2 ag: -3.0; TRPML1 blocker: 5.2; Six1-Eya2 inh: 0.8; TRPML1 agonist: -0.7; PINK1 expr mod: inconclusive; CtBP-E1A blk: 9.1

What do the screens show for `O=C(O)Cc1sc(-c2cccnc2)nc1-c1ccc(Br)cc1`?
D2 ag: 1.8; TRPML1 blocker: -8.4; Six1-Eya2 inh: -10.4; TRPML1 agonist: 0.4; PINK1 expr mod: 3.6%; CtBP-E1A blk: 12.3

What do the screens show for `[O-]/C(=C(\C(=S)Nc1ccc(Cl)cc1)[n+]1ccccc1)c1ccc(OC(F)F)cc1`?
D2 ag: -4.6; TRPML1 blocker: 23.8; Six1-Eya2 inh: -7.9; TRPML1 agonist: -0.4; PINK1 expr mod: 6.7%; CtBP-E1A blk: -2.2

Results for Cc1ccc(-c2nc3ccccc3nc2-c2ccccc2)cc1 ?
D2 ag: -2.1; TRPML1 blocker: -0.8; Six1-Eya2 inh: 9.7; TRPML1 agonist: 3.4; PINK1 expr mod: 4.9%; CtBP-E1A blk: -16.2

How did COCCn1nnnc1C(c1cccc(OC)c1OC)N1CCN(C2CCCCC2)CC1 (stereo not drawn) do in these assays?
D2 ag: -2.7; TRPML1 blocker: 19.9; Six1-Eya2 inh: 7.5; TRPML1 agonist: -0.5; PINK1 expr mod: 0.7%; CtBP-E1A blk: 0.7

How did COc1cccc(C(=O)Nc2cccc(NC(=O)c3ccc(Cl)cc3Cl)c2)c1 do in these assays?
TRPML1 blocker: 10.3; TRPML1 agonist: 0.5; PINK1 expr mod: 0.9%

How did Cc1cccc(C)c1NC(=S)N(CCN1CCCCCC1)Cc1ccco1 do in these assays?
D2 ag: -10.6; TRPML1 blocker: 31.6; Six1-Eya2 inh: -9.4; TRPML1 agonist: 0.3; PINK1 expr mod: 0.5%; CtBP-E1A blk: -2.4

How did CCOc1ccc(-c2nnc(Nc3ccc(OC)c(C(=O)N4CCCCC4)c3)c3ccccc23)cc1 do in these assays?
D2 ag: 1.5; TRPML1 blocker: 10.6; Six1-Eya2 inh: -5.5; TRPML1 agonist: 1.3; PINK1 expr mod: 1.9%; CtBP-E1A blk: 7.9

Results for C#Cc1ccc([C@H]2C=C(C(=O)NCc3ccccc3)O[C@@H](OCc3ccc(CO)cc3)C2)cc1 ?
D2 ag: -0.3; TRPML1 blocker: 9.2; Six1-Eya2 inh: -5.8; TRPML1 agonist: 0.5; PINK1 expr mod: -0.4%; CtBP-E1A blk: -0.2

What do the screens show for `O=C1CC(N2CCN(Cc3ccc4c(c3)OCO4)CC2)C(=O)N1c1cccc(Cl)c1` (stereo not drawn)?
D2 ag: -1.4; TRPML1 blocker: -4.3; Six1-Eya2 inh: -1.4; TRPML1 agonist: 0.9; CtBP-E1A blk: 4.0

What do the screens show for `CCN(CC)C(=O)Cn1cnc2sc(C)c(S(=O)(=O)N3CCC(C)CC3)c2c1=O`?
D2 ag: -1.1; TRPML1 blocker: 9.9; Six1-Eya2 inh: -5.1; TRPML1 agonist: -0.1; PINK1 expr mod: 0.4%; CtBP-E1A blk: -5.2

Results for O=C(N=NC(=O)c1ccco1)c1ccc2c(O)n(N3C(=O)c4ccccc4C3=O)c(O)c2c1 ?
D2 ag: -0.1; TRPML1 blocker: 10.5; Six1-Eya2 inh: -9.3; TRPML1 agonist: -0.2; PINK1 expr mod: -2.7%; CtBP-E1A blk: -13.9

Results for CCN(c1ccccc1)S(=O)(=O)c1cccc(C(=O)OCC(=O)c2c(N)n(C)c(=O)n(C)c2=O)c1 ?
D2 ag: 3.8; TRPML1 blocker: 10.5; Six1-Eya2 inh: -19.4; TRPML1 agonist: -0.6; PINK1 expr mod: 2.9%

Results for CC(=NC(C)C)C1=C(O)C(C)OC1=O (stereo not drawn) ?
D2 ag: -1.2; TRPML1 blocker: 9.8; Six1-Eya2 inh: -6.6; TRPML1 agonist: 0.0; PINK1 expr mod: 0.0%; CtBP-E1A blk: -3.8

In the list so far, these contain an aryl thioether with sulfur outside any ring.
Results for COCCCn1c(SCc2cccc(OC)c2)nc2cc(OC)c(OC)cc2c1=N ?
D2 ag: 1.0; TRPML1 blocker: 22.7; Six1-Eya2 inh: -6.9; TRPML1 agonist: 0.7; PINK1 expr mod: 0.2%[38.3 µM]; CtBP-E1A blk: -12.9

How did Cn1nc(SCc2ccccc2)c(=O)n(C(c2ccccc2)c2ccccc2)c1=O do in these assays?
D2 ag: -3.2; TRPML1 blocker: 73.7; Six1-Eya2 inh: -2.8; TRPML1 agonist: 1.3; PINK1 expr mod: -2.7%; CtBP-E1A blk: 5.9

The list goes on.
Results for O=C(NNC(=S)NC(=O)c1cccs1)c1cccnc1 ?
D2 ag: -6.3; TRPML1 blocker: -9.8; Six1-Eya2 inh: -8.8; TRPML1 agonist: -0.5; PINK1 expr mod: 2.5%; CtBP-E1A blk: -2.2

What do the screens show for `O=S(=O)(c1ccccc1)c1nc(-c2ccccc2Cl)oc1NCCCN1CCOCC1`?
D2 ag: 3.2; TRPML1 blocker: 20.0; Six1-Eya2 inh: -13.1; TRPML1 agonist: 0.5; PINK1 expr mod: -1.1%; CtBP-E1A blk: -3.1

What do the screens show for `Cc1c(C#N)c2ncn(Cc3ccccc3)c(=O)c2n1-c1ccccc1`?
D2 ag: -1.4; TRPML1 blocker: -5.9; Six1-Eya2 inh: 0.5; TRPML1 agonist: 1.1; PINK1 expr mod: 3.9%; CtBP-E1A blk: -1.2

Results for Cc1oc(-c2ccc(Cl)cc2)nc1CN1CCCC(C(=O)NCCCN2CCCC2=O)C1 (stereo not drawn) ?
D2 ag: 1.2; TRPML1 blocker: 4.2; Six1-Eya2 inh: 1.0; TRPML1 agonist: 0.2; PINK1 expr mod: 0.5%; CtBP-E1A blk: 3.0

How did C/C(CC(=O)Nc1ccc2ccccc2c1)=N\NC(=O)c1cnccn1 do in these assays?
D2 ag: 0.1; TRPML1 blocker: -4.3; Six1-Eya2 inh: inconclusive; TRPML1 agonist: 0.7; PINK1 expr mod: 6.5%; CtBP-E1A blk: -0.3

How did COc1ccc(CN2CCC(n3nccc3NC(=O)CCCc3ccccc3)CC2)cc1C do in these assays?
D2 ag: -2.3; TRPML1 blocker: -10.9; Six1-Eya2 inh: -2.6; TRPML1 agonist: -0.1; PINK1 expr mod: 0.1%; CtBP-E1A blk: -4.0

What do the screens show for `COc1cccc(NC(=O)N2CCCC2C(=O)NC2CCCCC2)c1` (stereo not drawn)?
D2 ag: -1.2; TRPML1 blocker: 2.4; Six1-Eya2 inh: 1.0; TRPML1 agonist: 0.5; PINK1 expr mod: 0.5%; CtBP-E1A blk: -13.9

How did Cc1cccc(NC(=O)CN2C(=O)N/C(=C/c3ccc(C)s3)C2=O)c1 do in these assays?
D2 ag: -2.7; TRPML1 blocker: -6.7; Six1-Eya2 inh: 11.5; TRPML1 agonist: -0.2; PINK1 expr mod: -1.0%; CtBP-E1A blk: -13.0

What do the screens show for `CCOCCN1CCN(C(=O)CN2CCCC2=O)CC1`?
D2 ag: -7.6; TRPML1 blocker: 7.5; Six1-Eya2 inh: 8.0; TRPML1 agonist: -0.2; PINK1 expr mod: -0.2%; CtBP-E1A blk: 1.4

How did CCSc1nnc(COc2ccccc2)n1CC do in these assays?
D2 ag: -5.3; TRPML1 blocker: 16.1; Six1-Eya2 inh: 5.8; TRPML1 agonist: 0.0; PINK1 expr mod: -0.4%

How did CCc1nc2ccc(C(=O)NCCCn3ccnc3)cn2c1N(CC)Cc1cccc(Br)c1 do in these assays?
D2 ag: -1.6; Six1-Eya2 inh: -7.2; TRPML1 agonist: -1.0; PINK1 expr mod: 0.2%; CtBP-E1A blk: -12.0

How did COc1ccc(CNC(=O)c2sc3nc4n(c(=O)c3c2C)CCCC4)cc1 do in these assays?
TRPML1 blocker: -2.5; TRPML1 agonist: 0.0; PINK1 expr mod: 0.2%

Results for Cc1cc(C)c(OCCN(C)Cc2ccccc2)c(Br)c1 ?
D2 ag: -3.5; TRPML1 blocker: 18.8; Six1-Eya2 inh: 6.7; TRPML1 agonist: 0.2; PINK1 expr mod: 16.3%; CtBP-E1A blk: 14.3

What do the screens show for `Cc1cc(C)c(S(=O)(=O)N2CCN(c3ccccn3)CC2)c(C)c1`?
D2 ag: 0.5; TRPML1 blocker: 13.8; Six1-Eya2 inh: 2.8; TRPML1 agonist: -1.1; PINK1 expr mod: 0.8%; CtBP-E1A blk: 0.6

How did O=C(CN1C(=O)C2(SCC(=O)N2c2ccccc2)c2ccccc21)NCCc1ccccc1 (stereo not drawn) do in these assays?
TRPML1 blocker: 14.0; TRPML1 agonist: 0.2; PINK1 expr mod: -0.7%

How did CCc1nnc(NC(=O)Cn2nc(-c3ccccc3OC)ccc2=O)s1 do in these assays?
D2 ag: -3.5; TRPML1 blocker: 37.0; Six1-Eya2 inh: 4.5; TRPML1 agonist: 2.2; PINK1 expr mod: -2.3%[38.3 µM]; CtBP-E1A blk: 4.6

How did CCCn1cc(CN2CCC(C(=O)Nc3cccc(-c4cscn4)c3)CC2)c(C)n1 do in these assays?
D2 ag: -4.7; TRPML1 blocker: 7.7; Six1-Eya2 inh: -6.3; TRPML1 agonist: 1.1; PINK1 expr mod: -1.1%; CtBP-E1A blk: -14.2

How did Cc1cccc(NC(=O)CSc2nc(-c3ccccc3)cn2-c2ccccc2)c1C do in these assays?
TRPML1 blocker: -8.7; TRPML1 agonist: -0.2; PINK1 expr mod: -0.2%
